Vaccinia pol inh: vaccinia E9 polymerase processive synthesis inhibitors, primary screen, biochemical, absorbance; Vaccinia virus DNA polymerase (E9) processive complex; in vitro processive DNA synthesis, absorbance read-out; hits give low values; some inactives read as strong as hits; normalized absorbance, % (test concentration not listed); 46,000 compounds, 0.94% hits; AID 493162, 2011;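 active = replicate mean up to 90% and picked by the depositor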;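 also: 100% = median of the test wells of a plate; 100 nL library stock went into each well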
* hit, by the source's call. A portion of the library. The share of hits here may be higher or lower than overall.

Molecule	Vaccinia pol inh
CCC(C)Sc1nc2c(c(=O)n1-c1ccc(Cl)cc1)SCC2 (stereo unspecified)	100
O=C1OCCN1/N=C/c1ccc([N+](=O)[O-])o1	102
O=c1c(S(=O)(=O)c2ccccc2)cn(Cc2ccc(F)cc2)c2ccc(F)cc12	94
NS(=O)(=O)c1ccc2nc(NC(=O)c3ccc4c(c3)CCCC4)sc2c1	98
CCN(C(=O)CC(C)(C)C)c1ccccc1	98
O=C(Nc1ccc(F)cc1)C1CC(=O)N2CCN=C2S1 (stereo unspecified)	108
Cc1ccc(S(=O)(=O)NCc2ccc(C(=O)NCCN3CCN(c4ccccc4)CC3)cc2)cc1	101
CC(=O)N1c2ccccc2C(C)CC12CCCCC2 (stereo unspecified)	99
Cc1cc(=O)c2n(Cc3ccccc3Cl)nc[n+]2[nH]1	92
C/C(=N\n1c(-c2ccccc2)n[nH]c1=O)c1ccccc1	100
CCn1c2c(c3cc(OCc4ccccc4)ccc31)CCCC2=O	105
CC(C)NCC(O)COc1ccc(Br)cc1 (stereo unspecified)	101
COc1ccc(OC)c(S(=O)(=O)NC2CCCCC2)c1	103
COC(=O)c1ccc(-c2ccco2)n1CC(=O)c1ccccc1	98
O=C(CSc1nc2ccccc2c(=O)n1CCc1ccccc1)NCc1ccco1	84
CCC(C)(C)C1CCc2sc3nc[nH]c(=O)c3c2C1 (stereo unspecified)	104
CC1CC(NC(=O)c2ccc(Br)cc2)CC(C)(C)C1 (stereo unspecified)	100
NC(=O)C1CCN(C(=S)Nc2ccc(Cl)cc2)CC1	100
CC1CCCN(C(=O)COC(=O)c2cccc(Cl)c2)C1 (stereo unspecified)	84
O=c1cc(NCc2ccco2)[nH]c(=O)n1-c1ccc(Br)cc1	100
CC(=O)OCc1ccccc1Sc1ccccc1C(=O)Nc1ccccc1	97
Cc1cc(=O)oc2cc(OCC(N)=O)c(Cl)cc12	98
CCOC(=O)c1c(NC(=O)CSc2nccn2C)sc2c1CCC(C)C2 (stereo unspecified)	100
Cc1cc(C(=O)NN2CCOCC2)nc2c1c(C)nn2-c1ccccc1	105
COc1ccc(C2c3cc4c(cc3OC3(O)CCCC(=O)C23)OCO4)cc1 (stereo unspecified)	98
COC(=O)C1=C(C)NC(=O)/C1=C/c1ccc(CNS(=O)(=O)c2ccc(Cl)cc2)o1	100
O=C(NS(=O)(=O)c1ccc(Br)cc1)c1ccccc1O	102
COc1ccc(C(=O)n2c(SC)nc3ccccc32)cc1OC	104
O=C(c1ccc2c(Cl)c3c(nc2c1)CCC3)N1CCCC1	99
Cc1ccc(C(=O)OC2CCCN(C)C2)cc1 (stereo unspecified)	100
O=C1CSC2(C(=O)N(CN3CCCCC3)c3ccccc32)N1c1ccccc1 (stereo unspecified)	92
O=C(Nc1cccc(Br)c1)C1C(c2ccccc2)=C1c1ccccc1	100
O=c1[nH]nc(Cc2ccncc2)c2ccccc12	98
O=C(O)CCc1ccc(-c2ccccc2)n1-c1cccc(O)c1	97
Cc1cccc(-c2nsc(SCC(=O)OCc3ccccc3)n2)c1	96
Cc1cc(NC(=O)CSc2nc3ccccc3s2)no1	100
Cc1nnc(SC(=O)N2c3ccccc3Sc3ccccc32)s1	100
Nc1nc(-c2ccccc2)c(-c2ccccc2)o1	104
CC(C)COc1ccc(C(O)c2ccccc2)cc1 (stereo unspecified)	95
CCc1c(C)nc(SCC(=O)N2CCN(c3ccccc3)CC2)[nH]c1=O	101
Cc1ccc(S(=O)(=O)C(F)(F)F)cc1N	98
O=C(Cc1ccccc1)NC1CCCCCC1	101
Cc1ccccc1N/C(=N\S(=O)(=O)c1ccccc1)c1ccccc1	100
CN=C1SC(CC(=O)Nc2cccc(C(=O)O)c2)C(=O)N1C (stereo unspecified)	99
COCOc1ccc(C(=O)O)cc1OC	96
CCOC(=O)CSc1nnc(NC(=O)c2ccccc2)s1	102
Clc1ccc(CSc2ncc(-c3ccc(Cl)cc3)[nH]2)cc1	100
O=C(c1cc2c(s1)-c1ccccc1S(=O)(=O)C2)N1CCCC1	103
O=C(COc1ccc(-c2ccccc2)cc1)Nc1cccnc1	100
CCC1=CC(c2ccccc2)NC(=S)N1 (stereo unspecified)	100
Cc1cccc(NC(=O)OC2CCCCC2)c1	102
O=C(Cn1c(=O)c2cccn2c2ccccc21)NC1CCCC1	103
CCc1ccc(C(=O)Nc2nccs2)cc1	100
O=C(CC1CCCC1)Nc1noc2ccccc12	97
O=C1S/C(=C\c2cn(Cc3ccccc3)c3ccccc23)C(=O)N1CN1CCCCC1	100
CC(Sc1ncnc2ccccc12)C(=O)Nc1cccc(Cl)c1 (stereo unspecified)	100
O=C(OCc1ccc(C#Cc2ccccc2)s1)c1cccs1	90
CCCCC/C=C\C/C=C\CCCCCCCCCC(=O)O	99
CCOC(=O)c1cc2c(oc1=O)c(I)cc1oc3c(c12)CCCC3	100
COc1ccc(-c2noc(CC(=O)NCCC(C)C)n2)cc1	102

The listing continues:
Molecule	Vaccinia pol inh
Nc1nc(-c2cc3cc(Br)ccc3oc2=O)cs1	100
O=C(CS(=O)(=O)c1nc(-c2ccccc2)cn1-c1ccc(Cl)cc1)Nc1ccccc1	102
C=CCSC1=C(C#N)C(c2ccccc2)C(C(=O)OC)C(=O)N1 (stereo unspecified)	91
Cc1ccc(-c2ccc3ccccc3n2)o1	90
COc1ccc(NC(=O)CC(=O)CSc2ccccc2)cc1	101
O=C1OC(c2ccccc2F)=N/C1=C\c1cccc(C(F)(F)F)c1	96
Cc1ccc(C(=O)N2CCOCC2)cc1	101
Cc1ccc(OCc2ccc(C(=O)N(C)C3CCCCC3)o2)cc1C	100
CC(C)(C)c1cc(C(=O)N2CCN(c3ccc(C(F)(F)F)cn3)CC2)n(Cc2ccc(F)cc2)n1	77
COCC(=O)NCCc1nc2ccccc2[nH]1	92
Cc1ccccc1C(=O)NCCC(C)C	98
CC1=C(C)CC(C(=O)Nc2ccc3c(c2)oc2ccccc23)C(C(=O)O)C1 (stereo unspecified)	100
COc1ccc(N)cc1C#N	101
O=C(CSc1nncn2c1cc1occc12)NCCc1ccccc1	94
O=C(COC(=O)/C=C/c1ccco1)Nc1ccccc1C(F)(F)F	98
Fc1cc(F)c2c(c1)sc1nnc(-c3ccccc3)n12	86
Cc1ccc(NC(=S)SCCC(N)=O)cc1	101
CC1CCN(S(=O)(=O)c2ccc3c4c(cccc24)C(=O)N3)CC1	99
CC1c2ccsc2CCN1C(=S)NC(=O)c1cccs1 (stereo unspecified)	84
COc1ccc(NC2CS(=O)(=O)CC2OC(=O)c2ccc(F)cc2)cc1 (stereo unspecified)	100
CCC(=O)Nc1nc(-c2ccc(C)cc2C)cs1	93
Cc1c(C(=O)Nc2ccc(F)cc2F)sc2ncnc(N3CCC(C)CC3)c12	103
CCc1ccc(CNC(=S)Nc2ccc3nc(N4CCCC4)cc(C)c3c2)cc1	97
Cc1cc(C)c(S(=O)(=O)Nc2cccnc2)c(C)c1	106
O=C(c1cccnc1)N1N=C(C(F)(F)F)CC1(O)c1ccncc1 (stereo unspecified)	100
Cc1cc(S(=O)(=O)Nc2ccsc2C(N)=O)c(Cl)cc1Cl	100
CCC1(C)NC(=S)N(c2ccccc2)N1 (stereo unspecified)	100
Oc1ccccc1C=Nc1ccc(-c2nc3ccccc3s2)cc1	100
N#CCCn1cnc2ccccc21	101
Cc1ccccc1C(=O)OCc1cnc(Cl)s1	114

Single values from the list:
COc1ccc(N)cc1C#N in Vaccinia pol inh shows 101
Cc1ccc(C(=O)N2CCOCC2)cc1 in Vaccinia pol inh shows 101
Cc1ccc(-c2ccc3ccccc3n2)o1 in Vaccinia pol inh shows 90
O=C1OC(c2ccccc2F)=N/C1=C\c1cccc(C(F)(F)F)c1 in Vaccinia pol inh shows 96

(listing goes on)
Molecule	Vaccinia pol inh
CCCc1c(C(=O)NCc2ccc3c(c2)OCO3)cnn1-c1ccccc1	100
CCC(=O)Nc1ccc(C)cc1C	99
CSc1nc2c(sc3ccccc32)c(=O)n1-c1ccc(C)cc1	102
c1ccc2cc(CN3CCN(c4cccc5[nH]ccc45)CC3)ccc2c1	86
CC(=O)N1c2ccccc2C=Cc2ccccc21	88
C=CCOC(=O)c1c(N)oc2c(-c3ccccc3)c3c(C(=O)OCC=C)c(N)oc3cc12	100
Cc1ccc(/C=C2\Sc3ccccc3C2=O)c(O)c1	75
O=C(O)c1cccc(NCc2ccc3c(c2)OCO3)c1	99
Cc1ccc(C2CC(c3ccccc3)=Nc3ccccc3S2)cc1 (stereo unspecified)	96
O=C(c1ccc2c(c1)C(=O)c1ccccc1-2)c1ccccc1Br	101
S=C(Nc1ccc2c(c1)OCCO2)Nc1ccccc1N1CCOCC1	104
CCOC(=O)NS(=O)(=O)c1ccccc1	106
Cn1c(-c2ccc3nc(-c4ccc(N)cc4)[nH]c3c2)nc2cc(N)ccc21	89
COc1cccc(/C=C2\CCC(C3CCCC3)C2=O)c1OC (stereo unspecified)	91
NCc1nc2ccccn2c1Br	99
CC1CCCC(C)N1CC(O)Cn1cc(/C=N/O)c2ccccc21 (stereo unspecified)	99
CC[N+]1(C)CCCC(OC(=O)C(O)(c2ccccc2)c2ccccc2)C1 (stereo unspecified)	100
S=C(NCC1CCCO1)SCc1cn2ccccc2n1 (stereo unspecified)	101
COc1ccc(C2NC(=S)NC(C)=C2C(N)=O)cc1 (stereo unspecified)	100
CC1CCCN(C(=O)c2ccc(Cl)nc2)C1 (stereo unspecified)	105
O=C(CSc1nc2cc(Cl)ccc2o1)NCc1ccccc1	95
O=C(Nc1ccccc1C(=O)N1CCN(Cc2ccccc2)CC1)c1ccccn1	99
CCCCS(=O)(=O)NC1=NCN(CCO)CN1	100
O=C(c1ccc(Oc2ccccc2)cc1)c1coc2ccc(O)cc12	100
O=C(Nc1ccncc1)c1ccc(F)cc1	101
Cc1ccc2nc(NCc3ccccc3)sc2c1	93
Cc1ccc(CC(=S)N2CCOCC2)cn1	102
N#CCC(=O)NCC1CCCO1 (stereo unspecified)	106
CCN(C(=O)c1ccc2c(SCC(=O)O)c3c(nc2c1)CCC3)c1cc(Cl)ccc1OC	93
O=C1N=c2ccccc2=C1c1sc(NS(=O)(=O)c2ccccc2)nc1O	100

Taken from the listing for reference:
Molecule	Vaccinia pol inh
CCc1c(C)nc(SCC(=O)N2CCN(c3ccccc3)CC2)[nH]c1=O	101
Cc1ccc(S(=O)(=O)C(F)(F)F)cc1N	98
O=C(Cc1ccccc1)NC1CCCCCC1	101
Cc1ccccc1N/C(=N\S(=O)(=O)c1ccccc1)c1ccccc1	100
CN=C1SC(CC(=O)Nc2cccc(C(=O)O)c2)C(=O)N1C (stereo unspecified)	99
COCOc1ccc(C(=O)O)cc1OC	96
CCOC(=O)CSc1nnc(NC(=O)c2ccccc2)s1	102

(list continues)
Molecule	Vaccinia pol inh
CC(C)N1CC23C=CC(O2)C(C(=O)O)C3C1=O (stereo unspecified)	100
C[N+]1(C)CCCC(OC(=O)C(O)(c2ccccc2)c2ccccc2)C1 (stereo unspecified)	100
CC1(C)CC(C)(c2ccccc2)c2cc(SC#N)ccc2N1 (stereo unspecified)	100
COc1ccc(NC(=O)c2cccnc2Cl)cc1	102
O=C1c2ccccc2NC(c2ccccc2)N1N=C1CCCCCC1 (stereo unspecified)	101
O=S(=O)(c1ccc2nc(CO)[nH]c2c1)c1ccc2nc(CO)[nH]c2c1	116
COC(=O)N1CCN(c2nc(-c3ccccc3)cs2)CC1	99
CSc1nnc(-c2ccccc2N)c(=O)[nH]1	100
CCCNC(=O)c1[nH]c2ccccc2c1Sc1ccc(C)cc1	100
Cc1ccc(C(=O)NCCc2cc3cc(C)c(C)cc3[nH]c2=O)cc1	100
CC(C)c1ccc2[nH]c3c(c2c1)CCC/C3=N\O	100
CCN(CC)CC(O)COc1ccc(OC)cc1 (stereo unspecified)	90
Cc1c(Cc2ccccc2)c(=O)oc2cc(OCc3ccc(C(=O)O)cc3)ccc12	100
CCn1cc(CCC(=O)NCc2ccco2)c2ccccc21	99
CC1CCN(C(c2ccccc2)c2ccc3cccnc3c2O)CC1 (stereo unspecified)	101
O=C(Nc1ccccc1Cl)c1cc2ccccc2cc1O	100
CCN(C(=S)NCc1ccccc1)C1CCCCC1	100
O=C(Cc1ccccc1)NC1CCN(C(=O)C2CCC2)CC1	103
c1cc(-c2ccc3c(c2)OCO3)[nH]n1	117
CC1=NN(c2nnc(C)c(=O)[nH]2)C(=O)/C1=C\c1ccc(N(C)C)cc1	101
CCOC(=O)C1CCCN(C(=O)COc2cccc(Br)c2)C1 (stereo unspecified)	90
C1CCN(C2=NCCS2)CC1	99
O=C(Nc1ccc2c(c1)OCCO2)C1(c2ccccc2)CCOCC1	99
O=C(N=S1CCN(c2ncc(C(F)(F)F)cc2Cl)CC1)c1ccccc1	113
COc1ccc(/C=C/C(=O)N2CCCC2)cc1OC	97
CC/C(O)=c1\ccc2cccc3nc(CC)nc1c23	85
CCC1Oc2ccc(C)cc2N(CC(=O)NC(C)CCc2ccccc2)C1=O (stereo unspecified)	92
O=C(COc1ccc(Br)cc1C(=O)Nc1ccc(Cl)cc1)NC1CC1	100
CCCSc1nnc(NC(=O)C23CC4CC(CC(C4)C2)C3)s1	98
Cc1cc(N)c2ccccc2[n+]1CCCCCCCCCC[n+]1c(C)cc(N)c2ccccc21	35*
S=c1nc(-c2ccccc2)n(-c2ccccc2)[nH]1	107
COCc1cc(Cl)nc(-c2ccccc2)n1	103
CCOc1ccc(-n2c(O)c(C3=c4ccccc4=NC3=O)sc2=O)cc1	100
CCOC(=O)c1ccc(N=Cc2ccc3ccccc3c2)cc1	100
COCCn1c(=NC(C)=O)sc2ccccc21	111
